# RGS16-Gao: modulators of RGS16 binding to Galphao, primary screen, biochemical, human proteins, multiplexed bead flow cytometry; AID 1441, 2008; Regulator of G-protein signaling 16 (Homo sapiens) + Guanine nucleotide-binding protein …; binding response (% of control), % at 10 µM; bead-based flow cytometry RGS16-Galphao binding, fluorescence; actives lie on both sides; actives 0.38% (n = 220,000);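 active = below 25% or above 175%, edge rows of some plates excepted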;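 note: Galphao activated by GDP with aluminum fluoride before binding; 100% = wells without compound and 0% = beads without RGS; some results beyond the cut were filed as inactive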
# Target sequence (O15492 whole entry, looked up): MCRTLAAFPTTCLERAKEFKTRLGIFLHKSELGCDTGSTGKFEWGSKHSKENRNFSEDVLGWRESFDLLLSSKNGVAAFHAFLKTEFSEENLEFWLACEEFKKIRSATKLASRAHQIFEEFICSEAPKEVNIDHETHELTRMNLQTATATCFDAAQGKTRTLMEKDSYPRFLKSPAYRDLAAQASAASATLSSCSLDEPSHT
# Target sequence (P09471 whole entry, looked up): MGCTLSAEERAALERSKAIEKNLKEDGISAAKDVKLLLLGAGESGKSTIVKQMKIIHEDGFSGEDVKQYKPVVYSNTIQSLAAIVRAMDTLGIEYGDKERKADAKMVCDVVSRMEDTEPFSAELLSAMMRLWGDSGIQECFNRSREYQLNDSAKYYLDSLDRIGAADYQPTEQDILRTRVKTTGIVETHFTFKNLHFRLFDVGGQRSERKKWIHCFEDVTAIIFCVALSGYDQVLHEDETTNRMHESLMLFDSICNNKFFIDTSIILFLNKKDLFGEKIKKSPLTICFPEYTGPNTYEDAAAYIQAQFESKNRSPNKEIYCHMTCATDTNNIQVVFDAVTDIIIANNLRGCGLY
# GALR2 agonist: GALR2 receptor agonists, primary screen, cell-based | Galanin receptor type 2 (Homo sapiens), O43603 | GALR2-expressing cells, agonist activation read-out | activation, %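 (tested at 5 µM)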 | actives 0.48% (n = 140,000) | AID 803, 2007;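 active = above mean plus 3 SD of all compounds, about 5% in these data, not always enough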;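 note: 0% = vehicle buffer wells and 100% = reference agonist at full effect; tested in CHO reporter cells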
# Target sequence (O43603 whole entry, looked up): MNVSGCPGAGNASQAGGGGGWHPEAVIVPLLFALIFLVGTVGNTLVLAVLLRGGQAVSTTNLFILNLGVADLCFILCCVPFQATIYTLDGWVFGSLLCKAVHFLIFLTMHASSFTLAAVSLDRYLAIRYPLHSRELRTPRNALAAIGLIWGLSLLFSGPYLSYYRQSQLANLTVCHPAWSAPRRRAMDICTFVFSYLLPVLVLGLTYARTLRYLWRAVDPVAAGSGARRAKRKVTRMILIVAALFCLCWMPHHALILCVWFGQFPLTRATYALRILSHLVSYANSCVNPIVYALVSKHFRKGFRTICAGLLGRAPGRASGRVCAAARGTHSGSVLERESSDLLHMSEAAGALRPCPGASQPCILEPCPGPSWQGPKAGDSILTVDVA
# PKD1 inh: inhibitors of human PKD1 kinase, biochemical, fluorescence polarization; Serine/threonine-protein kinase D1 (Homo sapiens), Q15139; PKD1 kinase fluorescence polarization assay; inhibition, %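 (about 10 µM by stock and volumes)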; actives 0.056% (n = 200,000); AID 797, 2007;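 active = inhibition of 50% or more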;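 note: controls were vehicle for no effect and a reference inhibitor for full effect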
# HSV replic up: enhancers of HSV replication in host cells, fold increase, host cell viability; maximum fold increase; actives 0.005% (n = 220,000); HSV replication augmentation in cells;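 active = peak rise of 1.5-fold or more in the series; inconclusive = self-fluorescent or not available for retest; tested in PC3 cells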;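 note: first round at 10 µM; read as green reporter fluorescence; hits show the peak of a series up to 25 µM; 1 = signal of infected wells without compound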
# INS promoter inh: inhibitors of insulin promoter-driven GFP, primary screen, imaging, TRM-6 cells (human fetal islet line), eGFP reporter, cell count. AID 1273, 2008. reporter expression induced with tamoxifen. actives 0.9% (n = 130,000). inhibition, % at 2 µM;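 active = inhibition above the mean plus 3 SD, with well images judged a real hit on visual review, cut at about 60% in these data, passing the limit was not always enough; inconclusive = inhibition over the cutoff but images rejected on review; inactive = inhibition not above the cutoff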
# INS promoter inh cell count: second read-out of INS promoter inh, no call of its own (marks repeat the call); normalized cell count, %; measured here: cell count, toxicity; reference of the scale not given here;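 cells exposed to compound for 48 h; stained nuclei by imaging scaled within each plate; lower means fewer cells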
# HSV replic up primary fold: second read-out of HSV replic up, no call of its own (marks repeat the call); fold increase; compound at 10 µM; measured here: primary screen fold increase 10 uM; tested in PC3 cells;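 GFP signal in the first replicate; 1 = infected wells without compound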
# Active calls of the source: *; i = inactive; ? = inconclusive; nt = no result given.
# Values run as follows: RGS16-Gao | GALR2 agonist | PKD1 inh | HSV replic up | HSV replic up primary fold | INS promoter inh | INS promoter inh cell count
> COc1ccc(Cc2nnc(-c3cccc(C)c3)o2)cc1OC
 : 99.3 | -1.3 | 0.9 | i | 0.99 | 0.0 | 135.1
> Cc1ccc2c(c1)cc(CN(Cc1ccc3c(c1)OCO3)S(=O)(=O)c1ccccc1)c1nnnn12
 : 67.0 | -0.9 | -8.8 | i | 0.91 | -20.6 | 53.3
> Cc1oc(-c2cc(F)ccc2F)nc1CN1CCN(C)C(=O)[C@@H]1C
 : 115.2 | nt | 0.0 | i | 0.84 | -95.7 | 24.6
> COc1ccc(CCNc2nncc(=O)[nH]2)cc1OC
 : 100.0 | -2.3 | 1.9 | i | 0.9 | 21.6 | 172.2
> COC(=O)c1c(CCl)noc1C(=O)NC(C)C
 : 102.0 | -2.4 | 3.2 | i | 0.99 | nt | nt
> Cc1ccc(N2C(=O)C3C=NNC3C2=O)cc1 (stereo not given)
 : 22.6 | nt | -5.3 | i | 0.93 | nt | nt
> Cc1csc(NC(=O)Cn2cnnn2)n1
 : 99.7 | 0.0 | 0.6 | i | 0.85 | -7.1 | 115.8
> Cc1cccc(Cc2nnc(CCC(=O)N(C)Cc3ccncc3C)o2)c1
 : 100.5 | nt | -10.9 | i | 0.95 | 0.0 | 159.3
> COc1ccccc1N1C(=O)c2ccccc2NC1c1ccncc1 (stereo not given)
 : 99.0 | -1.6 | -8.7 | i | 0.82 | 17.8 | 157.6
> CC1=C(C(=O)Nc2ccccc2)C(c2ccc(O)cc2)N2C(=O)CSC2=N1 (stereo not given)
 : 235.2 | -3.9 | -6.7 | i | 0.88 | 20.0 | 93.4
> COC(=O)c1ccc2c(=O)sc(N3CCC(C(N)=O)CC3)nc2c1
 : 92.0 | -4.3 | -8.1 | nt | nt | -14.3 | 137.5
> CC(=O)Nc1ccc(S(=O)(=O)NCC2CCC(C(=O)NC(C)c3ccc4c(c3)OCCO4)CC2)cc1 (stereo not given)
 : 95.5 | nt | 3.5 | i | 0.91 | nt | nt
> COc1cc(OC)c(NC(=S)Nc2cccc(C)c2)cc1Cl
 : 102.4 | 0.3 | -1.8 | i | 1.01 | 25.9 | 117.2
> CCOC(=O)NC(=O)/C(C#N)=C\NNc1ncc(C(F)(F)F)cc1Cl
 : 108.2 | nt | -5.3 | i | 0.95 | nt | nt
> COc1ccccc1N1CCN(c2ccc(N3C(=O)CCC3=O)cc2[N+](=O)[O-])CC1
 : 94.8 | nt | -10.4 | i | 0.87 | -42.9 | 131.1
> Cc1ccc(NC(=S)Nc2ccc3cn[nH]c3c2)cc1
 : 97.8 | -1.2 | 6.8 | i | 0.87 | 23.3 | 80.5
> Cc1cc(C)cc(NC(=O)C(OC(=O)C2=COCCO2)c2ccccc2)c1 (stereo not given)
 : 102.8 | -1.4 | -6.3 | i | 1.41 | nt | nt
> O=C(c1cc(COc2ccc(F)cc2Cl)on1)N1CCC(OCc2cccnc2)CC1
 : 101.0 | nt | 2.6 | i | 0.95 | nt | nt
> CCN1CCN(c2ccc(NC(=O)c3cccc(OCc4ccccc4)c3)cc2)CC1
 : 100.6 | 0.1 | -3.2 | i | 0.63 | nt | nt
> O=C(CCCCl)Oc1ccc2cc(-c3ccc4ccccc4n3)c(=O)oc2c1
 : 101.5 | 3.3 | -2.0 | ? | nt | 16.7 | 93.8
> CC1SCC(=NOCc2ccccc2)CS1 (stereo not given)
 : 91.8 | nt | nt | i | 1.29 | nt | nt
> CC(C)[C@H](NC(=O)OC(C)(C)C)c1nnc(SCc2cccc(F)c2)o1
 : 96.0 | -0.1 | -1.3 | i | 0.95 | -82.8 | 54.3
> COc1ccccc1/C=N/NC(=O)c1ccc(N(C)S(=O)(=O)c2ccccc2)cc1
 : 91.2 | nt | -1.2 | i | 1.18 | nt | nt
> Cc1ccc(NC(=O)Cn2cnc3cc([N+](=O)[O-])ccc3c2=O)cc1
 : 97.1 | nt | nt | i | 1.1 | nt | nt
> c1ccc(Cn2c(SCCN3CCOCC3)nnc2-c2cccnc2)cc1
 : 103.2 | -1.2 | -5.8 | i | 0.91 | -54.5 | 89.2
> CN(CCc1ccccn1)C(=O)CN(C)S(=O)(=O)c1ccc2c(c1)c(=O)n(C)c(=O)n2C
 : 104.2 | -0.3 | -13.2 | i | 0.98 | -51.4 | 143.7
> Cc1ccc(N(C(C)C(=O)O)S(=O)(=O)c2c(C)n[nH]c2C)cc1 (stereo not given)
 : 104.0 | -0.9 | -4.6 | i | 0.89 | nt | nt
> c1ccc(N2CCN(c3c4c(nc5ncnn35)CCC4)CC2)cc1
 : 100.7 | -0.8 | 5.5 | i | 1.15 | -8.3 | 120.1
> CCc1nnc(NC(=O)CSc2nnc(-c3ccccc3O)n2-c2ccc(C)cc2)s1
 : 100.7 | 1.8 | -1.2 | i | 0.69 | -20.0 | 100.9
> CCN(CC)CCCNC(=O)Cn1ncn2cccc2c1=O
 : 105.4 | 0.5 | 1.9 | i | 0.97 | 9.4 | 194.3

# (list continues)
SMILES	RGS16-Gao	GALR2 agonist	PKD1 inh	HSV replic up	HSV replic up primary fold	INS promoter inh	INS promoter inh cell count
O=c1[nH]c(NC2CCCCC2)c([N+](=O)[O-])c(=O)[nH]1	106.2	-1.6	10.0	i	0.99	-16.7	80.7
COc1ccc(OC)c(NC(=O)CCC(=O)N(Cc2ccc(OC)c(OC)c2)c2nccs2)c1	100.5	nt	7.0	i	1.05	nt	nt
Cc1ccc(CNC(=O)c2ccccc2SCC(=O)NCC2CCCCC2)cc1	102.8	-1.5	0.3	i	0.98	nt	nt
COc1ccc(NC(=O)CN2CCN(CC(=O)Nc3ccccc3Cl)CC2)c(OC)c1	108.9	1.7	6.2	i	0.9	nt	nt
CN1CCN(C(=O)c2cc(-c3cccc(Cl)c3)on2)CC1	96.1	-3.2	-2.3	nt	nt	nt	nt
Cc1c(C(=O)N2CCN(c3ccccc3F)CC2)sc2ncn(CC(=O)N3CCOCC3)c(=O)c12	95.2	-0.4	0.4	nt	nt	nt	nt
O=C(CCn1cccc1)NCc1ccc2c(c1)OCO2	110.1	-3.6	-10.5	i	0.93	-63.6	77.2
O=[n+]1cc(-c2ccccc2)n([O-])c2c1CCCCC2	98.6	-1.9	8.1	i	0.99	-16.7	84.4
O=C(NCCC1=CCCCC1)C(=O)NCC1OCCCN1S(=O)(=O)c1ccc(F)cc1 (stereo not given)	98.2	nt	14.0	i	0.96	nt	nt
Cc1ccc(Oc2c(CO)c(-c3ccccc3)nn2C)cc1	101.6	nt	1.1	i	1.02	nt	nt
COc1ccccc1NC1=C(C)C(=O)CC1	102.1	-1.9	4.7	i	0.91	-40.0	121.2
CCC(=O)Oc1ccc2c(C)cc(=O)oc2c1C	102.5	-0.6	-4.7	nt	nt	-39.1	86.4
O=C(Nc1ccc2ccccc2c1)[C@@H]1C[C@H]1[C@@H](NP(=O)(c1ccccc1)c1ccccc1)c1ccccc1	114.0	-1.5	-1.9	i	0.89	40.9	104.5
Cc1cc2c(c(=O)n1C)C(C(C)C)C(C#N)=C(N)O2 (stereo not given)	-66.3	1.4	-7.1	nt	nt	11.4	63.1
CCOC(=O)c1c(C)[nH]c(C(=O)C(C)Cl)c1C (stereo not given)	104.8	nt	-4.6	i	0.97	nt	nt

# Next part.
SMILES	RGS16-Gao	GALR2 agonist	PKD1 inh	HSV replic up	HSV replic up primary fold	INS promoter inh	INS promoter inh cell count
CCOC(=O)N/N=C/c1cn(Cc2ccccc2Cl)c2ccccc12	108.7	1.6	-1.0	i	0.83	-11.1	148.6
CCn1c(C)cc(/C=C2/NC(=O)N(c3ccccc3)C2=O)c1C	97.8	nt	-6.7	i	0.97	nt	nt
Cc1nn(-c2ccccc2)c2nc(-c3ccccc3)cc(C(=O)N3CCOCC3)c12	115.5	nt	2.4	i	0.71	-77.8	117.0
Cc1cc(C(=O)N2CCOCC2)ccc1[N+](=O)[O-]	99.5	nt	-1.3	i	1.04	-7.1	109.4
O=C1CN(C(=O)OCc2ccccc2)c2ccccc2N1	101.0	-2.4	-5.6	i	0.853	-43.5	81.4
COC(=O)CNC(=O)COc1ccccc1	79.5	-1.8	-6.5	i	0.9	26.1	128.4
O=C(c1cccc([N+](=O)[O-])c1)N1CCN(Cc2ccc3c(c2)OCO3)CC1	106.0	nt	-6.7	i	0.98	nt	nt
Cc1noc(C)c1C(=O)NCCc1ccc(Cl)cc1	99.2	0.8	3.2	i	0.92	17.9	123.3
CCOC(=O)c1csc(NC(=O)c2ccc(C#N)cc2)n1	100.1	nt	1.4	i	0.89	nt	nt
CCN(CC)C(=O)CSc1ccccc1N	94.9	-1.1	-0.2	i	1.01	25.0	110.6
CCCCCCCCCCSc1n[nH]c(N)n1	91.2	-1.1	-5.2	i	0.93	-25.0	69.3
Cc1cccc(N(CC(=O)NCc2ccco2)C(=O)CCC(=O)Nc2ccccn2)c1	97.4	-1.1	-1.7	i	0.95	12.1	79.7
CCOc1ccc(OCC(=O)Nc2ccc(S(=O)(=O)Nc3cc(C)nc(C)n3)cc2)cc1	102.9	-2.0	-2.9	i	1.01	50.0	89.0
COc1cc2nc(NCCCN3CCN(C)CC3)n3nc(-c4ccccc4)nc3c2cc1OC	101.6	0.5	-4.5	i	0.67	nt	nt
Cc1ccc2cc(CCNC(=O)C(=O)c3c[nH]c4ccccc34)c(=O)[nH]c2c1	104.4	nt	-2.3	i	0.84	52.6	97.3

# One compound at a time, as listed above. Values in the order: RGS16-Gao	GALR2 agonist	PKD1 inh	HSV replic up	HSV replic up primary fold	INS promoter inh	INS promoter inh cell count
# Results for Cc1cc(C(=O)N2CCOCC2)ccc1[N+](=O)[O-] → 99.5	nt	-1.3	i	1.04	-7.1	109.4
# Results for CCOc1ccc(OCC(=O)Nc2ccc(S(=O)(=O)Nc3cc(C)nc(C)n3)cc2)cc1 → 102.9	-2.0	-2.9	i	1.01	50.0	89.0

# Nine compounds already listed, ordered by formula weight, rising:
SMILES	RGS16-Gao	GALR2 agonist	PKD1 inh	HSV replic up	HSV replic up primary fold	INS promoter inh	INS promoter inh cell count
CCCCCCCCCCSc1n[nH]c(N)n1	91.2	-1.1	-5.2	i	0.93	-25.0	69.3
Cc1noc(C)c1C(=O)NCCc1ccc(Cl)cc1	99.2	0.8	3.2	i	0.92	17.9	123.3
O=C1CN(C(=O)OCc2ccccc2)c2ccccc2N1	101.0	-2.4	-5.6	i	0.853	-43.5	81.4
CCOC(=O)c1csc(NC(=O)c2ccc(C#N)cc2)n1	100.1	nt	1.4	i	0.89	nt	nt
CCOC(=O)N/N=C/c1cn(Cc2ccccc2Cl)c2ccccc12	108.7	1.6	-1.0	i	0.83	-11.1	148.6
O=C(c1cccc([N+](=O)[O-])c1)N1CCN(Cc2ccc3c(c2)OCO3)CC1	106.0	nt	-6.7	i	0.98	nt	nt
Cc1nn(-c2ccccc2)c2nc(-c3ccccc3)cc(C(=O)N3CCOCC3)c12	115.5	nt	2.4	i	0.71	-77.8	117.0
Cc1cccc(N(CC(=O)NCc2ccco2)C(=O)CCC(=O)Nc2ccccn2)c1	97.4	-1.1	-1.7	i	0.95	12.1	79.7
CCOc1ccc(OCC(=O)Nc2ccc(S(=O)(=O)Nc3cc(C)nc(C)n3)cc2)cc1	102.9	-2.0	-2.9	i	1.01	50.0	89.0

# Later entries
SMILES	RGS16-Gao	GALR2 agonist	PKD1 inh	HSV replic up	HSV replic up primary fold	INS promoter inh	INS promoter inh cell count
Cc1ccc(OCC(=O)N2CCCc3ccccc32)cc1	110.9	-3.5	4.3	i	0.907	-182.8	37.8
Cc1ccc(C)c(OCCOCCN2CC(C)OC(C)C2)c1C (stereo not given)	101.9	-2.0	1.0	i	0.93	nt	nt
S=c1[nH]nc(-c2ccccn2)n1/N=C/c1ccc(Cl)cc1	96.4	nt	nt	i	1.19	nt	nt
C/C(CCC(C)C)=N\NC(=S)Nc1cc(S(=O)(=O)N2CCOCC2)ccc1N1CCOCC1	99.7	nt	-3.6	i	0.97	nt	nt
O=C(NCCCO)c1ccc2nc(-c3ccco3)c(-c3ccco3)nc2c1	71.3	nt	-3.4	i	1.01	nt	nt
Cn1c(N)c(Sc2ccc(F)cc2)c(=O)n(C)c1=O	105.7	nt	-3.5	i	0.93	60.0	116.7
Cc1sc(=NC(=O)c2ccco2)n(C)c1-c1ccc(Cl)cc1	100.6	-0.8	4.4	i	0.98	nt	nt
CC(C)CC(c1nnnn1CC1CCCO1)N1CCN(C2CCCC2)CC1 (stereo not given)	105.2	-2.0	-9.8	i	0.79	nt	nt

# High-throughput results as filed in PubChem.

# An unsorted share of the library. Share with any hit: about 1.3%.
